High-throughput results: PubChem, Fisher Drug Discovery Resource Center
NPYLR7 ag: agonists of mosquito NPYLR7 receptor, primary screen, cell-based, Aedes aegypti, calcium fluorescence, mosquito biting behavior | HEK293T NPYLR7/Galpha15, GCaMP6s calcium fluorescence | activation, % at 10 µM | hit rate 0.15% among 270,000; in the data active means activation above about 40%;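 further: 0% = vehicle and 100% = reference agonist at the receptor; some compounds past the cut are filed as inactive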
NPYLR7 ag max-min: recorded beside NPYLR7 ag, whose call it bears; activation, %; measured here: Max-Min RFU normalised activation; some inactives read as strong as hits;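 span of the calcium signal over five minutes; 0% = vehicle and 100% = native peptide agonist; compound fluorescence can raise it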
Starred values were filed as active, the others as inactive; & = joins results of further samples.

SMILES	NPYLR7 ag	NPYLR7 ag max-min
O=C(c1cnn(-c2cccc(F)c2)c1-c1ccccc1)N1CCCC1	35.0	37.9
CC(C)C(=O)Nc1c(-c2ccc3c(c2)OCO3)c(=O)c2ccccc2n1C	3.7	1.4
O=C(CCc1nnc(-c2ccc3c(c2)OCO3)o1)NCc1ccsc1	24.1	9.3
CCOC(=O)c1nn(-c2cccc(C)c2)c(=O)c2c(NC(=O)CCc3ccc(OC)cc3)scc12	1.4	0.8
CCOc1ccccc1NC(=O)Nc1ccc(N2CCN(c3ccccc3OC)CC2)c(C(=O)NCCN2CCOCC2)c1	-1.0	0.9
COc1cc(C(=O)Nc2nc3ccc4ccccc4c3s2)cc(OC)c1OC	-6.6	-11.4
Cc1ccc(Cl)cc1NC(=O)CCc1cccnc1	1.3	2.5
CC1(C(=O)NCc2ccc(Cl)cc2)CCN1C(=O)CCc1cccs1 (stereo not drawn)	9.5	6.7
NC(N)=NCc1cccc(I)c1	-0.3&0.2	-5.4&1.6
COC(=O)C(C)n1c(=O)c2c(nc3n(-c4cc(C)cc(C)c4)c(C)c(C)n23)n(C)c1=O (stereo not drawn)	0.1	4.2
Clc1ccccc1-c1nnc(-c2ccc3c(c2)OCO3)o1	5.6	5.3
O=C(CN1CSCC1=O)Nc1n[nH]c(-c2ccc3c(c2)CCC3)n1	1.2	1.4
CC(C)CC(C)OC(=O)c1ccc(CNC(N)=O)cc1 (stereo not drawn)	-1.1	-3.3
O=C(NCc1cccs1)c1ccc(Br)cc1F	1.7	27.2
CC1CCc2c(sc(NC(=O)Cc3ccccc3)c2C(=O)Nc2cccc3ccccc23)C1 (stereo not drawn)	0.4	3.0
CCC(=O)N(CC(=O)N1CCc2sccc2C1COc1ccc(C)cc1)C1CC1 (stereo not drawn)	-3.1	0.8
COc1ccc(C(=O)Nc2ccc(Cl)c(-c3nc4cc(Cl)ccc4o3)c2)cc1[N+](=O)[O-]	3.8	7.7
COc1ccc(CCNC(=O)c2ccccc2N2CCC(NC(=O)c3cc(OC)cc(OC)c3)CC2)cc1	17.1	15.1
CN(C)C(=O)c1cc(CCc2ccccc2)ccc1O	-0.9	2.0
Cc1nn(Cc2ccccc2)c(C)c1CNC(=O)CN1CCCCC1	0.9	0.7
Cc1ccccc1-n1ncc(C(C)NC(=O)C2CCN(C(=O)N(C)C)CC2)c1C (stereo not drawn)	-1.6	-4.0
O=C(CCCSc1ccc(NC(=O)C2CC2)nn1)NCc1ccccn1	-1.0	-3.4
Cc1ccc(N=C2SC(C(=O)Nc3cccc(Cl)c3)CC(=O)N2C)cc1C (stereo not drawn)	2.5	0.2
COc1ccccc1CN(Cc1cccc(C)c1)C(=O)CC1CCC(=O)N1 (stereo not drawn)	2.6	-3.5
CC(C)(C)c1ccc(C(=O)N2CCC2(C)C(=O)NCc2cccs2)cc1 (stereo not drawn)	2.1	1.6

(next part)
SMILES	NPYLR7 ag	NPYLR7 ag max-min
CC(C)N1CCOC(Cc2nn3c(Cc4ccccc4)nnc3s2)C1 (stereo not drawn)	-0.1	-6.4
CC(C)N1C(=O)c2ccccc2[C@@H](C(=O)NCCCN(C)c2ccccc2)[C@@H]1c1ccccc1	1.8	-1.2
Nc1nc(C2CCCCC2)cs1	0.0	0.4
COC(=O)c1ccccc1C=C1N=C(c2ccccc2OC)OC1=O	17.2	10.2
COc1ccc(S(=O)(=O)N(CC(=O)N2CCOCC2)c2ccc(C)cc2)cc1OC	-5.1	-8.8
Cc1cc(C)c2c(c1)-c1cc(C)nn1C(c1ccc(O)cc1O)N2 (stereo not drawn)	-6.8	-8.3
C=CCN(CC(=O)N(CCc1ccc(OC)c(OC)c1)Cc1sccc1C)C(=O)c1ccc(Cl)c(Cl)c1	-6.2	-1.1
CCCn1c(Sc2ccccc2)nc2c1c(=O)[nH]c(=O)n2C	7.1	2.9
Cc1ccc(-n2c(CCC(=O)N3CCN(CCC#N)CC3)cc3c2-c2ccccc2OC3)c(F)c1	-0.4	-2.8
CN(CCOc1ccccc1)C(=O)c1c[nH]c(=O)[nH]c1=O	-1.1	-2.5
CCCC12CN3CC(C)(CN(C1)C31CCCCC1)C2=O	7.5	3.5
O=c1c2c(nc(NCCCO)n1Cc1ccccc1)-c1ccccc1CC21CCCC1	3.3	0.5
CCc1[nH]n(-c2cccc(Cl)c2)c(=O)c1C1=C([n+]2ccccc2)C(=O)N(Cc2ccc(F)cc2)C1=O	-4.7	0.5
Cc1sc2c(c1C(=O)O)Nc1cc(Br)ccc1S2	5.8	3.9
CC(=O)N(C)c1ccc(Nc2ccccc2)c2c1C(=O)c1ccccc1C2=O	9.2	5.1
COc1cc(C=C2SC(=S)N(c3ccccc3)C2=O)cc(OC)c1OC	-5.0	-8.9
c1ccc(CC2CN(Cc3ccccc3)CCN2)cc1 (stereo not drawn)	-2.5	4.0
COc1ccc2c(c1)CC(NCc1csc(-c3cnccn3)n1)CC2 (stereo not drawn)	6.1	4.0
CCc1nc2c(OCc3cccc(Cl)c3)cccn2c1N(C)C(=O)c1ccco1	8.5	-6.0
CCOCCCn1c(SCc2ccc(Cl)cc2)nc2cc(S(=O)(=O)N3CCOCC3)ccc21	3.3	-1.7
Cc1csc2nc(CSc3nnc(-c4ccco4)o3)cc(=O)n12	-2.2	-2.4
O=C(CSc1nc2c(c(=O)n1Cc1ccccc1)SCC2)Nc1nc2ccccc2s1	-0.7	-4.8
O=C1c2ccccc2C(=O)N1CCCCN(C(=O)c1ccccc1Cl)c1ccc(Cl)cc1	-2.2	-1.6
CCN1CCN(C(=O)c2cc(-c3ccc(OC)cc3)nc3cc(C(C)(C)C)nn23)CC1	9.8	11.6
CCn1nnnc1NCc1ccc(OCc2ccc(C)cc2)cc1	2.5	0.6

Single records, as listed above.
O=C(CSc1nc2c(c(=O)n1Cc1ccccc1)SCC2)Nc1nc2ccccc2s1 across the screens: NPYLR7 ag: -0.7; NPYLR7 ag max-min: -4.8
CCCn1c(Sc2ccccc2)nc2c1c(=O)[nH]c(=O)n2C across the screens: NPYLR7 ag: 7.1; NPYLR7 ag max-min: 2.9

The listing continues:
SMILES	NPYLR7 ag	NPYLR7 ag max-min
COc1ccc(C=C2SC(=O)N(CCNC(=O)NCc3cccc(OC)c3)C2=O)cc1	-4.4	-5.9
c1ccc(-c2ccc(C3=Nc4ncnn4C(c4ccsc4)C3)cc2)cc1 (stereo not drawn)	13.4	12.7
N#Cc1ccc(C#N)c(-c2ccccc2)c1	0.1	5.4
COC(=O)C(=O)N1CC(=O)N2CCc3ccc(F)cc3C2C1 (stereo not drawn)	25.2	26.8
O=C(NCC1CCCO1)C(C1CCCC1)N1CCN(C(=O)C2CCC2)CC1 (stereo not drawn)	-6.9	-1.2
COc1ccc(S(=O)(=O)Nc2ccc3nc(N4CCCC4)sc3c2)cc1OC	-0.1	5.5
Cc1ccc(NC(=O)CSc2ccccc2C(=O)N2CCN(C(=O)C3CC3)CC2)cc1	6.7	5.0
C(=N/Nc1nc(N2CCCCC2)nc(N2CCCCC2)n1)/c1c[nH]c2ccccc12	-6.2	-4.1
O=C1OC2C3CCC(C1[C@H]3CO)[C@H]2I (stereo partly drawn)	-0.5	-5.6
CCOc1ncccc1-c1cccc(C(=O)OC)c1	0.9	-5.2
CCCCOC(=O)C1=C(C)N(C)C(=O)NC1c1ccc(Cl)cc1 (stereo not drawn)	3.8	3.6
CNC(=O)Cc1noc(-c2sccc2C#N)n1	3.4	1.8
CCC(C)C(NC(=O)c1ccc(Cl)cc1)C(=O)Nc1nnc(-c2ccc(Br)cc2)s1 (stereo not drawn)	16.9	16.3
CS(=O)(=O)N1CCN(c2ccc(-n3cccn3)nn2)CC1	-1.7	-6.7
COc1ccc(C2CC(C(F)(F)F)n3nc(C(=O)NCCc4c[nH]c5ccccc45)cc3N2)cc1 (stereo not drawn)	-3.8	2.9
COc1ccc(NC(=O)C(C)(C)c2ccc(Cl)cc2)cc1OCC(N)=O	4.5	3.7
CCNC(=S)N(Cc1csc(COc2cccc(C)c2C)n1)C(C)C	14.4	22.5
O=C(CCCSc1ccc(NC(=O)C2CC2)nn1)Nc1ccccc1Cl	0.5	-0.6
OCCCN(CCn1cccn1)C1CCc2ccccc21 (stereo not drawn)	-4.0	-4.8
COc1ccc(N2CCN(C(=O)c3cc(-c4cccs4)nn3-c3ccc(Cl)cc3)CC2)cc1	14.1	21.1
O=C(CNC(=O)C(c1ccccc1)c1ccccc1)N=Nc1c(O)[nH]c2ccc([N+](=O)[O-])cc12	3.5	-2.4
Cc1cccc(COCC2CN(C(=O)COCc3ccccc3)CCO2)c1 (stereo not drawn)	9.7	21.9
Cc1cccc(Cc2nnc(CCC(=O)NCc3ccncc3C)o2)c1	2.2	-0.3
CCN1CCN(Cn2ncn(C)c2=S)CC1	21.6	11.6
COc1cccc2sc(=NC(=O)c3nc4ccccc4s3)n(C)c12	-0.3	3.5

Fetched by structure from the list above (four):
SMILES	NPYLR7 ag	NPYLR7 ag max-min
Cc1cccc(COCC2CN(C(=O)COCc3ccccc3)CCO2)c1 (stereo not drawn)	9.7	21.9
CS(=O)(=O)N1CCN(c2ccc(-n3cccn3)nn2)CC1	-1.7	-6.7
CCN1CCN(Cn2ncn(C)c2=S)CC1	21.6	11.6
N#Cc1ccc(C#N)c(-c2ccccc2)c1	0.1	5.4

(list continues)
SMILES	NPYLR7 ag	NPYLR7 ag max-min
OCC1(CCCc2ccccc2)CCN(c2cnccn2)CC1	1.5	1.7
Cc1nnc(NC(=O)NC(c2ccccc2)c2ccc(F)cc2)s1 (stereo not drawn)	3.8	3.6
O=C1C=CC(=O)N1c1ccc(Cl)c(Cl)c1	-5.0	-13.3
COCCOC(=O)C1=C(C)NC2=C(C(=O)CCC2)C1c1ccc(N(C)C)cc1 (stereo not drawn)	-4.6	-10.0
Nc1ncnc(NCCO)c1[N+](=O)[O-]	6.8	4.9
OCCCn1cnc(-c2ccccc2)c1-c1cccc2c1OCO2	9.1	-3.7
CCOc1ccccc1NC(=O)CSc1nc2c(-c3ccccc3)c[nH]c2c(=O)n1C	1.3	-4.0
COCCCn1cc(C(=O)N2CCN(c3ccc(F)cc3)CC2)c2nn(-c3ccccc3)c(=O)c-2c1	4.8	2.9
NCC1Cc2cc(-c3ccc(Cn4ccnc4)cc3)cc(F)c2O1 (stereo not drawn)	2.4	0.6
O=C(c1ccc(Cl)c(Cl)c1)C1CCN(C(=O)NCC2COCCO2)CC1 (stereo not drawn)	1.5	-0.1
O=C(C1CCCN(c2nc(Cc3ccccc3)ns2)C1)N1CCN(c2ccc([N+](=O)[O-])cc2)CC1 (stereo not drawn)	-9.6	-14.7
NC(=O)c1ccc(OC2CCN(c3ccc(Cl)cc3)C2=O)cc1 (stereo not drawn)	-6.8	-7.4
CSc1nc(N2CCOCC2)c2cnn(CCNC(=O)c3ccc(F)cc3)c2n1	8.0	7.9
CN1CCCC2(CCN(C(=O)CCCc3ccc(F)cc3)C2)C1=O (stereo not drawn)	8.2	6.3
N#Cc1cccc(S(=O)(=O)NC2CCc3ccccc32)c1 (stereo not drawn)	-0.3	-1.1
O=C(NC1CCCN(c2nc3ccccc3s2)C1)C1(N2CCOCC2)CCCCC1 (stereo not drawn)	15.4	2.5
COc1cc(CNc2nn[nH]n2)ccc1OCc1cccc(C)c1	-7.5	-14.6
O=C(Nc1cccs1)N1CCn2cccc2C1c1cccnc1 (stereo not drawn)	13.9	7.1
O=C(NCc1nnnn1-c1ccc(F)cc1)c1ccc(Br)o1	-3.3	-4.2
Cc1cccc(Cc2nnc(CCC(=O)NCc3cccc(C(F)(F)F)c3)o2)c1	1.7	-0.4
Cc1ccccc1N1CCN(C(=O)CN2Cc3ccccc3OC(c3ccccc3F)C2)CC1 (stereo not drawn)	2.9	-0.3
COc1cccc(-c2cc(-c3ccc(C(=O)N4CCN(CCCC#N)CC4)cc3)[nH]n2)c1	-3.6	3.0
CNc1cnc(-c2ccccc2CO)cn1	1.8	0.5
O=C(c1cccc(Br)n1)N1CCOC(COCc2ccccc2F)C1 (stereo not drawn)	-5.8	-9.1
CCCC1CCC(c2ccc(-c3noc(-c4ccc(F)cc4)n3)cc2)CC1 (stereo not drawn)	-0.4	1.5

(continued)
SMILES	NPYLR7 ag	NPYLR7 ag max-min
COc1ccc(CNC(C)c2nnc3ccccn23)cc1OC(F)F (stereo not drawn)	8.3	2.6
CSc1sc(I)cc1/C=N\NC(=O)C(NC(=O)c1ccccc1)c1n[nH]c(=O)c2ccccc12 (stereo not drawn)	0.3	10.8
O=c1cc(CN2CCN(S(=O)(=O)c3ccccc3Cl)CC2)occ1OCc1ccccc1Cl	4.1	5.9
Cc1c2c(c(C)n1-c1ccccc1)C1(CCCCC1C)NCC2 (stereo not drawn)	2.4	-0.9
Cc1cc(C(=O)Nc2cc(C)nn2-c2nc3ccccc3s2)on1	-11.3	-16.6
CCc1[nH]n(C)c(=O)c1C1=C(N(C)Cc2ccccc2)C(=O)N(Cc2ccc(F)cc2)C1=O	5.5	6.0
CN(C(=O)CSc1nc2c(c(=O)[nH]1)CCCC2)C1CCCCC1	7.3	9.1
CCOC(=O)C1=C(O)/C(=C\c2cccc(F)c2O)SC1=Nc1cccc(Cl)c1	8.2	9.5
CCOC(=O)C(C)n1cnc2c(nnn2-c2ccccc2)c1=O (stereo not drawn)	6.5	4.8
Cn1c(=O)n(CCCO)c(=O)c2c1nc1n2CCN1c1ccccc1	0.2	-1.6
CCOC(=O)N1CCN(C2CCCN(C(=O)c3ccsc3)C2)CC1 (stereo not drawn)	0.2	-0.8
CS(=O)(=O)N1CCN(c2ccc([N+](=O)[O-])c(NCCOc3ccc(Cl)cc3)c2)CC1	2.5	2.4
COc1cccc(CN2CCCC(O)(CNCC(F)F)C2=O)c1OC (stereo not drawn)	9.2	8.8

Exported with each value named: 2 of the compounds above
> CSc1sc(I)cc1/C=N\NC(=O)C(NC(=O)c1ccccc1)c1n[nH]c(=O)c2ccccc12 (stereo not drawn)
  NPYLR7 ag = 0.3	NPYLR7 ag max-min = 10.8

> O=c1cc(CN2CCN(S(=O)(=O)c3ccccc3Cl)CC2)occ1OCc1ccccc1Cl
  NPYLR7 ag = 4.1	NPYLR7 ag max-min = 5.9

A portion of the library; the hit share may differ from the screen's.
